Screens from PubChem BioAssay.
GALR2 ag: GALR2 (human) receptor agonism. O43603. GALR2-expressing cells, agonist activation read-out. activation, %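 (tested at 5 µM)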. 140,000 tested, 0.48% active. AID 803;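 active means above mean plus 3 SD of all compounds, about 5% in these data, not always enough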;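 further: 0% = vehicle buffer wells and 100% = reference agonist at full effect; tested in CHO reporter cells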
PKD1 kinase inh: blocks activity of human protein kinase D1 | Q15139 | AID 797 | PKD1 kinase fluorescence polarization assay | inhibition, %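 (about 10 µM by stock and volumes)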 | 200,000 tested, 0.056% active;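 active means inhibition of 50% or more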;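 further: controls were vehicle for no effect and a reference inhibitor for full effect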
Target sequence (Q15139 whole entry, looked up): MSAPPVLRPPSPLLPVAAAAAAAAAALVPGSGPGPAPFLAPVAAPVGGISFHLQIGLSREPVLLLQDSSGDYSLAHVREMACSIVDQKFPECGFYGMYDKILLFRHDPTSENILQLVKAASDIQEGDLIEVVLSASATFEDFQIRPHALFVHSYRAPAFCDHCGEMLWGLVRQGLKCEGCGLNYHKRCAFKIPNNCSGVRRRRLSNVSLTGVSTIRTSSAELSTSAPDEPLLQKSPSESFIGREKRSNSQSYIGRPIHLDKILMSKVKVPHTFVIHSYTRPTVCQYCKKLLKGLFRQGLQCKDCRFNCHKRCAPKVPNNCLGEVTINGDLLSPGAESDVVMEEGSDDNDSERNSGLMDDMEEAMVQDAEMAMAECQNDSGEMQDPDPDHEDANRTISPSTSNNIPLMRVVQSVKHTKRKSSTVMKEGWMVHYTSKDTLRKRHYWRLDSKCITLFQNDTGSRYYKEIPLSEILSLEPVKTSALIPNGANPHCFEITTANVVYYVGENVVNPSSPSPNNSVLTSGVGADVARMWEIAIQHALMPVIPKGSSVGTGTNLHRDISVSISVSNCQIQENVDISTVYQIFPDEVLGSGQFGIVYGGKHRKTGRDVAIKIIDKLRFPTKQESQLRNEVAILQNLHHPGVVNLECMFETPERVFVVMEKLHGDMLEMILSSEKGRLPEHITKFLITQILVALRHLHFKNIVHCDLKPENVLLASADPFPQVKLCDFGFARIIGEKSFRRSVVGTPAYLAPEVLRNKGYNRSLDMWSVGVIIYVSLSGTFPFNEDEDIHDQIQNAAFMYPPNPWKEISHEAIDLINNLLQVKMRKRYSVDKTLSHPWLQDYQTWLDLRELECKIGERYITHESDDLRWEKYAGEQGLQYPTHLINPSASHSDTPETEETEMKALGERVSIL
RGS16-Gao: regulators of human RGS16-Galphao interaction; bead-based flow cytometry RGS16-Galphao binding, fluorescence; actives lie on both sides; 220,000 tested, 0.38% active; O15492+P09471; binding response (% of control), % at 10 µM;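 active means below 25% or above 175%, edge rows of some plates excepted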;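 further: Galphao activated by GDP with aluminum fluoride before binding; 100% = wells without compound and 0% = beads without RGS; some results beyond the cut were filed as inactive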
Insulin prom inh: TRM-6 insulin promoter activity inhibition | TRM-6 cells (human fetal islet line), insulin promoter-eGFP reporter, imaging; reporter expression induced with tamoxifen | inhibition, % at 2 µM | 130,000 tested, 0.9% active;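 active means inhibition above the mean plus 3 SD, with well images judged a real hit on visual review, cut at about 60% in these data, passing the limit was not always enough; inconclusive means inhibition over the cutoff but images rejected on review; inactive means inhibition not above the cutoff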
HSV replic up: HSV replication enhancement | 220,000 tested, 0.005% active | HSV replication augmentation in cells, fold increase | maximum fold increase;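 active means peak rise of 1.5-fold or more in the series; inconclusive means self-fluorescent or not available for retest; tested in PC3 cells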;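 further: first round at 10 µM; read as green reporter fluorescence; hits show the peak of a series up to 25 µM; 1 = signal of infected wells without compound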
Insulin prom inh cell count: recorded beside Insulin prom inh, whose call it bears; normalized cell count, %; measured here: cell count, toxicity; reference of the scale not given here;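 cells exposed to compound for 48 h; stained nuclei by imaging scaled within each plate; lower means fewer cells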
HSV replic up primary fold: recorded beside HSV replic up, whose call it bears; fold increase; compound at 10 µM; measured here: primary screen fold increase 10 uM; tested in PC3 cells;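 GFP signal in the first replicate; 1 = infected wells without compound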
Starred values were filed as active, the others as inactive; i = inactive; ? = inconclusive; / = not tested or not shown.

Structure	GALR2 ag	PKD1 kinase inh	RGS16-Gao	Insulin prom inh	Insulin prom inh cell count	HSV replic up	HSV replic up primary fold
COc1ccc(C)cc1NC(=O)C(Sc1nnc(Nc2cc(C)ccc2OC)s1)c1ccccc1 (stereo unspecified)	-2.3	0.7	-13.1*	7.7	121.9	i	0.9
CSc1ncc(Cl)c(C(=O)C(C#N)c2nc3c(C)cc(C)cc3c(=O)[nH]2)n1 (stereo unspecified)	-0.7	4.6	106.5	-11.1	77.6	i	0.9
CNC(=O)COC(=O)c1cc(=O)[nH]c2ccccc12	-2.5	-1.7	127.1	25.6	124.0	i	1.02
CN(C)CCCN(C(=O)COc1ccccc1)c1nc2c(F)cccc2s1	/	-1.2	100.9	-22.2	84.0	i	0.93
Cc1ccc(-c2nc(CS(=O)CC(=O)NCc3ccc(Cl)cc3)c(C)o2)cc1 (stereo unspecified)	-2.1	0.0	105.8	/	/	i	0.94
O=S(=O)(c1ccc(Cl)cc1)c1snnc1-c1ccccc1	-3.5	-3.3	102.6	3.1	12.3	i	0.737
Cc1nc(CNC(=O)c2cc(COc3c(F)cccc3F)on2)cs1	/	/	97.9	/	/	i	0.98
O=C(NNC1OC(CO)C(O)C(O)C1O)c1cccnc1 (stereo unspecified)	/	-1.4	106.5	/	/	i	1.05
CC(C)Oc1ccc(N2CC(C(=O)Nc3ccccc3F)CC2=O)cc1 (stereo unspecified)	0.1	-10.7	102.5	-300.0	84.3	i	0.92
O=C(c1cccnc1)N1CCN(C(=O)c2cccs2)CC1	-1.7	0.0	100.2	-456.2	86.5	i	1.01

More records
Structure	GALR2 ag	PKD1 kinase inh	RGS16-Gao	Insulin prom inh	Insulin prom inh cell count	HSV replic up	HSV replic up primary fold
COC(=O)c1ccccc1NC(=O)c1nc2nc(C)cc(C)n2n1	-4.1	-1.5	107.1	39.4	86.7	i	0.93
CC(Nc1n[nH]c(=S)[nH]c1=O)C(=O)OCc1ccccc1 (stereo unspecified)	0.0	-14.4	59.0	30.8	73.1	i	0.95
CCOC(=O)N1CCN(S(=O)(=O)c2ccc3c(c2)CCN3C(=O)C2CCC2)CC1	-0.8	-1.3	80.9	/	/	i	1.03
COc1ccc(-c2nnn(CC(=O)N(CCO)C(C(=O)NC3CCCC3)c3ccc(F)cc3)n2)cc1 (stereo unspecified)	-3.5	-6.3	98.0	36.4	127.5	i	0.88
Cc1occc1C(=O)n1nnc2ccccc21	-3.7	5.6	103.3	-406.7	29.2	i	0.81
CCc1c(C)nc2ncnn2c1N1CCCC(C(=O)NCc2cccs2)C1 (stereo unspecified)	/	-3.5	99.2	-7.1	103.8	i	0.88
CC(C)Oc1ccc(/C(O)=C2/C(=O)C(=O)N(CCN3CCOCC3)C2c2ccccc2)cc1 (stereo unspecified)	0.8	-7.8	107.9	-2.9	68.7	i	1.01
COC(=O)C1=C(C)NC(=O)NC1c1ccsc1 (stereo unspecified)	-1.2	-5.5	106.0	5.7	154.4	i	0.86
CCn1nc(NC(=O)c2cccnc2)c2cc3cccc(C)c3nc21	4.2	-6.4	88.7	-47.1	106.8	i	0.91
NC(=O)CC(NC(=O)Cc1ccc(Br)cc1)c1ccc(NCC2CC2)c([N+](=O)[O-])c1 (stereo unspecified)	/	/	99.7	/	/	i	0.835

Further structures follow.
Structure	GALR2 ag	PKD1 kinase inh	RGS16-Gao	Insulin prom inh	Insulin prom inh cell count	HSV replic up	HSV replic up primary fold
COc1ccc(NC(=O)c2[nH]c(C)c(C(C)=O)c2C)cc1Cl	-4.1	-1.2	85.4	3.2	53.2	i	0.9
COCCN(CC(=O)NCc1ccccc1)C(=O)CCC(=O)Nc1ccccn1	-0.5	1.7	92.9	-11.1	89.4	i	0.92
Cc1ccc(C(=O)Cn2c(C(=O)/C=C/c3ccccc3)nc3ccccc32)cc1	-1.3	0.4	104.1	37.8	59.3	i	0.97
CC(C)CC(=O)Nc1nnc(-c2ccco2)s1	0.3	-8.5	93.0	51.4	70.1	i	0.88
Cc1ccccc1NCC(=O)N/N=C/C(Br)=C/c1ccccc1	-1.8	4.6	103.1	17.1	31.8	i	0.87
O=[N+]([O-])C(=C1Nc2ccccc2N1)C(Cl)=C(Cl)Cl	/	-2.7	49.0	/	/	i	1.02
COc1cccc(CC2(CO)CCCN(Cc3cc4ccccc4[nH]3)C2)c1 (stereo unspecified)	/	1.0	93.9	/	/	i	0.75
O=C(OCC#CCSc1nc2ccccc2s1)c1ccco1	0.2	9.3	110.3	-191.4	97.9	i	1
Cn1c(=O)c2c(nc(NCc3ccccc3)n2CC(=O)NCc2ccccc2)n(C)c1=O	-3.6	-3.8	112.2	-68.1	50.6	i	0.97
COc1cc(C2NC(=O)NC(C)=C2C(C)=O)cc(OC)c1OC (stereo unspecified)	/	0.2	98.9	/	/	i	1.11

Going on with the list.
Structure	GALR2 ag	PKD1 kinase inh	RGS16-Gao	Insulin prom inh	Insulin prom inh cell count	HSV replic up	HSV replic up primary fold
COc1ccc(C2CC(=O)C=C(O)C2)cc1 (stereo unspecified)	-3.2	-1.2	105.6	21.4	98.5	i	0.96
Cc1nc2ccccc2c(=O)n1Nc1cccc(Cl)c1	-0.5	-9.4	103.7	-7.1	88.0	i	0.95
CCOC(=O)C1CCCN(C(=O)c2cccc(S(=O)(=O)N3CCOCC3)c2)C1 (stereo unspecified)	/	-6.3	81.8	/	/	i	0.98
CC12CN3CCN(CC(C3)/C1=N/NC(=O)Nc1ccccc1)C2	-0.8	0.7	83.8	20.0	121.7	i	0.77
COc1ccc(C(=O)Cn2c(NCCO)nc3ccccc32)cc1	/	-0.7	107.1	-7.7	111.3	i	0.91
CCN(CC)c1ccc(/C=N/N2CCOCC2)c(O)c1	1.1	-8.3	99.8	-33.3	111.2	i	0.84
O=C(N/N=C/c1ccc(OC(F)F)cc1OC(F)F)c1ccc(Br)cc1	-0.4	3.4	128.9	/	/	i	0.94
Clc1ccc(OCc2nn3c(-c4ccco4)nnc3s2)cc1	-0.1	8.1	106.3	18.2	72.9	i	1.01
O=C(NCC1CCCO1)C1CCN(S(=O)(=O)c2cccc3nonc23)CC1 (stereo unspecified)	-2.2	3.0	100.4	58.3	108.9	i	0.95
COCCNC(=S)N(CCc1c(C)[nH]c2ccc(F)cc12)Cc1cccs1	/	-9.4	105.5	-89.2	141.1	i	0.93

Remaining list, next part.
Structure	GALR2 ag	PKD1 kinase inh	RGS16-Gao	Insulin prom inh	Insulin prom inh cell count	HSV replic up	HSV replic up primary fold
Cc1ccc(CC2S/C(=C(/C#N)C(=O)NCc3ccco3)N(c3ccccc3)C2=O)cc1 (stereo unspecified)	-2.3	-3.3	96.7	/	/	?	/
Cc1ccc(NS(=O)(=O)c2ccccc2)c2c1CC(C)(C)O2	-0.8	-7.6	108.3	-3.5	164.9	i	1.15
CN(C)CCCn1c(NC(=O)C2CCCCC2)nc2ccccc21	-2.9	-1.2	100.6	18.2	59.6	i	0.87
COc1ccc(C2=NOC(C(=O)Nc3ccc(C)cc3)C2)cc1OC (stereo unspecified)	0.4	-12.2	79.2	/	/	i	0.94
C=CCNC(C(=O)Nc1cccc(OC)c1)c1ccccc1 (stereo unspecified)	/	-10.5	108.5	6.7	100.0	i	0.93
COc1cccc(OC)c1OCCOCCn1cnc2ccccc2c1=O	-2.9	0.1	97.7	24.0	124.9	i	0.92
COc1ccc(NC(=O)C(c2ccc(C)cc2)N(C)C(=O)c2cnccn2)cc1 (stereo unspecified)	-0.8	3.4	95.7	/	/	i	0.99
Cc1ccc(NC(=O)N2CCCn3c(SCC(=O)c4ccccc4)nnc32)cc1	/	/	99.5	/	/	i	0.92
CCCCn1nc2cc(C(=O)NCC3CC3)ccc2c1OCC	-1.2	8.2	104.2	/	/	i	0.88
COc1ccc(-c2csc3ncn(-c4cccc(C)c4)c(=O)c23)cc1OC	/	1.9	116.3	56.5	113.3	i	0.91

Six structures from above, sorted by number of heavy atoms, rising.
Structure	GALR2 ag	PKD1 kinase inh	RGS16-Gao	Insulin prom inh	Insulin prom inh cell count	HSV replic up	HSV replic up primary fold
O=[N+]([O-])C(=C1Nc2ccccc2N1)C(Cl)=C(Cl)Cl	/	-2.7	49.0	/	/	i	1.02
COc1cc(C2NC(=O)NC(C)=C2C(C)=O)cc(OC)c1OC (stereo unspecified)	/	0.2	98.9	/	/	i	1.11
COc1ccc(C(=O)Cn2c(NCCO)nc3ccccc32)cc1	/	-0.7	107.1	-7.7	111.3	i	0.91
COc1ccc(C2=NOC(C(=O)Nc3ccc(C)cc3)C2)cc1OC (stereo unspecified)	0.4	-12.2	79.2	/	/	i	0.94
CCOC(=O)N1CCN(S(=O)(=O)c2ccc3c(c2)CCN3C(=O)C2CCC2)CC1	-0.8	-1.3	80.9	/	/	i	1.03
COc1ccc(C)cc1NC(=O)C(Sc1nnc(Nc2cc(C)ccc2OC)s1)c1ccccc1 (stereo unspecified)	-2.3	0.7	-13.1*	7.7	121.9	i	0.9

Continuation:
Structure	GALR2 ag	PKD1 kinase inh	RGS16-Gao	Insulin prom inh	Insulin prom inh cell count	HSV replic up	HSV replic up primary fold
CC1CCCCN1C(=O)Nc1ccccc1Cl (stereo unspecified)	/	5.9	42.3	/	/	i	0.95
COc1ccc2nc(SCC(=O)Nc3ccccc3C)[nH]c2c1	-3.0	-7.6	99.2	-29.4	153.2	i	0.99
COc1ccc(CSc2nnc(NC(C)=O)s2)cc1[N+](=O)[O-]	/	-1.9	105.0	/	/	i	0.95
CCOC(=O)c1c(C)[nH]sc1=S	-1.0	-10.0	99.5	-72.7	179.8	/	/
Cc1ccc(C(=O)NNC(=O)CNc2cccc(Cl)c2)cc1	/	6.1	107.7	/	/	i	1.04
Cc1ccc(S(=O)(=O)c2cc3c(=O)n4ccccc4nc3n(C)c2=N)cc1	4.7	1.1	98.5	/	/	/	/
CCOC(=O)N1CCN(S(=O)(=O)c2ccc(C)cc2)C1	/	/	101.7	/	/	i	0.92
CC(=O)NC(CCCN1C(=O)c2ccccc2C1=O)c1nnn(C)n1 (stereo unspecified)	-0.4	-11.0	109.1	-50.0	128.3	i	0.89
CC1CCc2cc(F)ccc2N1S(=O)(=O)c1ccc(Cl)nc1 (stereo unspecified)	-0.2	6.6	98.4	-2.9	74.8	i	1.01
CCCCn1c(-c2csc(CC)c2)n[nH]c1=S	-0.6	-20.2	109.7	-37.5	86.3	i	0.94

Going on with the list.
Structure	GALR2 ag	PKD1 kinase inh	RGS16-Gao	Insulin prom inh	Insulin prom inh cell count	HSV replic up	HSV replic up primary fold
O=C(CC(SCCO)c1ccc2c(c1)OCO2)c1cccs1 (stereo unspecified)	0.1	-7.9	105.9	/	/	i	1.43
O=C(O)c1ccc(/C=C/c2nc3sc4c(c3c(=O)[nH]2)CCC4)cc1	/	7.1	101.6	/	/	i	1.06
COc1cccc(CC2(CO)CCN(C(=O)NCCc3ccccc3)CC2)c1	/	-4.2	101.7	/	/	i	1.03
COC(=O)C(C#N)C(=C1C(=O)CC(C)(C)CC1=O)c1ccc(O)cc1 (stereo unspecified)	-1.4	3.5	102.7	-21.6	62.0	i	0.9
O=C(/C=C/c1c(F)cccc1Cl)c1ccc(O)cc1	/	/	96.2	/	/	i	0.81
COc1ccc(C2CC(C(F)(F)F)n3nc(C(=O)O)c(Br)c3N2)cc1 (stereo unspecified)	0.6	-8.2	97.2	50.0	84.5	i	0.82
OCCCCNCc1ccc(OCc2ccccc2Cl)cc1	-2.2	1.0	96.3	16.0	98.3	i	0.82
CCCCNC(=O)CNC(=S)N(Cc1ccc(C)cc1)Cc1ccco1	/	0.0	103.8	-58.3	130.6	i	0.88
COc1cc(C(=O)NC(=S)Nc2cccc(-c3cc4ccccc4oc3=O)c2)cc(OC)c1OC	-3.5	2.4	105.7	-6.7	102.5	i	0.92
CCNS(=O)(=O)c1ccc(NC(=O)c2ccccc2OCC)cc1	-0.5	-3.4	101.6	-205.9	25.4	i	0.87
